High-throughput results (PubChem)
VDR inh: blocks the human vitamin D receptor; Potency, µM, without a hit: max response, negative = inhibition, most hits filed as inhibitors; VDR-SRC2-3 peptide fluorescence polarization, 2 h; P11473; 400,000 tested, 0.93% active; active = well fitted inhibition curve with a large enough effect; inconclusive = small, poorly fitted or top-dose-only effect, or another doubt; inactive = no such curve, though single readings can be large or run the other way; also: series mostly up to about 120 µM
Target sequence (P11473 whole entry, looked up): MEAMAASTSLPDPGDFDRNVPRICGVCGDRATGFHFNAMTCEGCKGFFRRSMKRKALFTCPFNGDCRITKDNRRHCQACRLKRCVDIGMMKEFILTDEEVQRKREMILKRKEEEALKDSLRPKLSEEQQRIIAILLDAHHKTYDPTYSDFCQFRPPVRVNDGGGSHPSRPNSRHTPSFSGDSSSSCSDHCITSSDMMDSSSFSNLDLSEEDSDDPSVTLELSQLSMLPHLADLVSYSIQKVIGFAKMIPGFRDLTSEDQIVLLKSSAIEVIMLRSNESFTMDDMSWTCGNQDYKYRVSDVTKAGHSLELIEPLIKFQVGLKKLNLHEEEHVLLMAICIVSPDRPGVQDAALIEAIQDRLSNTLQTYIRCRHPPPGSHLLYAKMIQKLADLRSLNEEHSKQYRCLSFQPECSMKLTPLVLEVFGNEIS
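Reagent solutions, kept cold and dark, are dispensed first; compounds are then pinned in at 23 nl, plates briefly spun, and incubated 2 h at ambient temperature. Inhibition of VDR–SRC2-3 peptide binding is read by fluorescence polarization.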
Starred values were filed as active, the others as inactive; ? = inconclusive; & = joins results of further samples; [ ] = dose if it differs, or a comment. % is scaled to controls: 0 for no effect and ±100 for the full control effect; potency is read from the fitted curve at half-maximal effect. Some of the compounds tested, so the mix of outcomes need not match the whole.

Preview, seven compounds:
VDR inh,smiles
12%,O=C(COC(=O)C12CC3CC(CC(C3)C1)C2)Nc1ccc2[nH]c(=O)[nH]c2c1
10%,CC(C)(C)C1CCc2c(C(=O)N/N=C/c3cccs3)csc2C1 (stereo unspecified)
10%,O=C(Nc1ccccc1Cl)c1cccs1
-1%,CC(C)Cc1cc(C(=O)NCCN2CCOCC2)no1
7%,NC(=O)c1c(/N=C/c2cccnc2)sc2c1CCCC2
-12%,Cc1nc2oc(C(=O)c3ccccc3)c(N)c2c2c1COC(C)(C)C2
6%,CCC(C(=O)Nc1c(C)cc(C)cc1C)n1c(=O)c(-c2ccccc2NC(C)=O)nc2ccccc21 (stereo unspecified)

The list itself, from the start:
VDR inh,smiles
12%,O=C(COC(=O)C12CC3CC(CC(C3)C1)C2)Nc1ccc2[nH]c(=O)[nH]c2c1
10%,CC(C)(C)C1CCc2c(C(=O)N/N=C/c3cccs3)csc2C1 (stereo unspecified)
10%,O=C(Nc1ccccc1Cl)c1cccs1
-1%,CC(C)Cc1cc(C(=O)NCCN2CCOCC2)no1
7%,NC(=O)c1c(/N=C/c2cccnc2)sc2c1CCCC2
-12%,Cc1nc2oc(C(=O)c3ccccc3)c(N)c2c2c1COC(C)(C)C2
6%,CCC(C(=O)Nc1c(C)cc(C)cc1C)n1c(=O)c(-c2ccccc2NC(C)=O)nc2ccccc21 (stereo unspecified)
14%,O=C(c1cc2cc(Br)cc(Br)c2oc1=O)N1CCCC1
7%,COc1ccc(NC(=O)OC(CN2CCCCC2)C(F)(F)F)cc1 (stereo unspecified)
9%,Cc1c(-c2ccccc2)[n+](=O)c(-c2ccc(Cl)cc2)c(C)n1[O-]
-16%,CCOc1ccccc1C(=O)NCC(=O)OCc1csc(CC(=O)Nc2ccc(C)cc2)n1
0%,CS(=O)(=O)N(CC(=O)N1CCc2ccccc2C1)c1cccc(F)c1
-2%,COc1ccc2cc(-c3ccccc3)c(=O)oc2c1
-10%,CCOC(=O)c1c(C)nc(C)c(C(=O)OCC)c1-c1ccc(Br)cc1
-14%,NC(=O)c1ccccc1NC(=O)CN1CCN(Cc2ccc(Cl)cc2Cl)CC1
-1%,COc1ccc(Oc2nnc(C)c3ccccc23)cc1
-14%,C/C(CC(=O)Nc1ccc2c(c1)OCCO2)=N\NC(=O)Cc1ccc(Cl)cc1
-5%,Cc1onc(-c2ccccc2)c1C(=O)OCC(=O)c1ccccc1
-6%,O=C(NCc1ccc2c(c1)OCO2)C(=O)Nc1cc2c3c(c1)CC(=O)N3CCC2
?,CC(Oc1ccc(F)cc1)C(=O)Nc1cccc(-c2nn[nH]n2)c1 (stereo unspecified)
4%,N#Cc1ccc(OCC(=O)N2CCCC2=O)cc1
26%,CC(=O)c1c(C)oc2c1cc(NS(=O)(=O)c1ccc(C(=O)O)cc1)c1ccccc12
13%,Cc1oc(C(C)(C)C)cc1C(=O)NCc1ccc2c(c1)OCO2
4%,CC(NC(=O)NCCCC(=O)O)(C(F)(F)F)C(F)(F)F
-22%&14%,O=C(Nc1nnc(S(=O)(=O)Nc2ccccc2)s1)C1CCCCC1
-19%,CC(=O)Nc1cccc(NC(=O)CCc2ccccc2)c1
-1%,CCCCN1C(=O)CC(Sc2ccccc2C(=O)O)C1=O (stereo unspecified)
3%,CCCn1c(SCC(=O)NC(C)(C)C)nnc1-c1ccco1
-16%,COc1cc(OC)cc(C(=O)NCC(=O)N2CCC(C)CC2)c1
-19%,OC(c1ccccc1)c1nccc2ccccc12 (stereo unspecified)
16%,O=C(NCCc1ccccc1)C1CCN(S(=O)(=O)N2CCCCCC2)CC1
8%,N#CCCn1c(C(C#N)(CCC#N)CCC#N)nc2ccccc21
10%,CCCN(CCC)CC(O)Cn1cc(/C=C/C(=O)c2ccc(Br)cc2)c2ccccc21 (stereo unspecified)
-4%,Cc1ccc(CN(C(=O)c2csnn2)C(C(=O)NC2CCCC2)c2cccnc2)cc1 (stereo unspecified)
-8%,COc1ccc(CN(C(=S)Nc2ccccc2)C2CC(=O)N(c3ccccc3)C2=O)cc1 (stereo unspecified)
-53%,Cc1ccc(NC2=C(N3CCCCC3)C(=O)c3ccccc3C2=O)cc1
11%,Cc1ccc(NC(=O)c2cn3c4c(ccc(Cl)c4c2=O)OC(C)C3)c(C)c1 (stereo unspecified)
1%,COc1cccc(C2C(C#N)=C(N)Oc3c2oc(CO)cc3=O)c1OC (stereo unspecified)
7%,CCOc1cc(C(C(=O)NCC2CCCO2)N(C(=O)Cn2nnc3ccccc32)c2ccc(C(C)=O)cc2)ccc1O (stereo unspecified)
21%,Cc1ccc(S(=O)(=O)NCc2ccccc2)cc1C(=O)NC1CCCCC1

Three structures out of the list, ordered by molecular weight, descending.
VDR inh,smiles
7%,CCOc1cc(C(C(=O)NCC2CCCO2)N(C(=O)Cn2nnc3ccccc32)c2ccc(C(C)=O)cc2)ccc1O (stereo unspecified)
-4%,Cc1ccc(CN(C(=O)c2csnn2)C(C(=O)NC2CCCC2)c2cccnc2)cc1 (stereo unspecified)
21%,Cc1ccc(S(=O)(=O)NCc2ccccc2)cc1C(=O)NC1CCCCC1

Later entries:
VDR inh,smiles
-1%,Cc1c(C(=O)N2CCOCC2)c(S(=O)(=O)Nc2ccccc2F)c(C)n1C
6%,Cc1cccc(OCCn2c(=O)oc3ccc(C)cc32)c1
-4%,O=C(Nc1cc2c(cc1Br)OCCO2)c1cccnc1
-4%,CC(=O)Nc1ccc(NC(=O)C(C)OC(=O)c2cccc(S(=O)(=O)N3CCCCC3)c2)cc1 (stereo unspecified)
-12%,O=C(O)c1ccccc1C(=O)Nc1ccc(Nc2ccc([N+](=O)[O-])cc2[N+](=O)[O-])cc1
-6%,COC(=O)c1ccccc1-c1ccc(/C=N/Nc2nc(N3CCCC3)nc(N3CCCC3)n2)o1
0%,CCOCCCNC(=O)c1cn(CC)c2ccc(S(=O)(=O)N3CCC(C)CC3)cc2c1=O
?,CN1CCc2c(sc(/N=C/c3ccco3)c2C(N)=O)C1
4%,Cc1cc(C)cc(N(C)S(=O)(=O)c2nnc(NC(=O)COc3ccc(C)c(C)c3)s2)c1
6%,O=C(c1cccs1)c1sccc1Cc1ccccc1
3%,CCC(=O)N1CCc2cc(Br)cc(S(=O)(=O)N3CCCC(C(=O)Nc4ccc(C(C)C)cc4)C3)c21 (stereo unspecified)
-10%,COc1ccccc1NC(=O)Cn1nnc(-c2ccccc2NC(=O)c2cnccn2)n1
-9%,Cc1ccc(S(=O)(=O)N/N=C\c2ccc(C)o2)cc1
-10%,O=C(O)c1cc(S(=O)(=O)Nc2cccc(Oc3ccccc3)c2)ccc1Br
1%,CC(C)Cn1cnc2c1c(=O)n(CC(O)c1ccccc1)c(=O)n2CC(C)C (stereo unspecified)
-1%,COc1ccc(/C=N/NC(=S)Nc2cc(C(F)(F)F)ccc2Cl)cc1
-7%,O=c1c2ccccc2nc(COc2ccccc2)n1/N=C/c1ccc(O)cc1O
-10%,COc1cccc(/C(O)=C/c2nc3ccc(C(=O)NCCc4cccc(C)c4)cc3[nH]c2=O)c1
-2%,CSC1=C(C#N)C(c2ccc3c(c2)OCO3)C2=C(CCCC2=O)N1 (stereo unspecified)
0%,O=C(CSCc1cc(=O)n2nc(C3CC3)sc2n1)Nc1ccc(F)cc1
5%,Cc1cc(C)n(CC(=O)N2CCCC(N3CCN(c4ccc(F)cc4)CC3)C2)n1 (stereo unspecified)
4%,COc1cccc(C(=O)NCCSc2ccc(C)cc2)c1
15%,CC(C)(C)NCc1ccc(OCc2cccs2)cc1
3%,Cc1cc(C)n(CCN(C)c2nc3nonc3nc2N2CCCCC2)n1
-2%,O=C(C[n+]1ccsc1)c1ccccc1
7%,CCCCn1c(N)c(N(Cc2ccccc2OC)C(=O)c2ccc([N+](=O)[O-])s2)c(=O)[nH]c1=O
-5%,Cc1ccccc1NC(=O)C1CCCN(S(=O)(=O)c2ccc3c(c2)C(C)(C)C(=O)N3C)C1 (stereo unspecified)
-7%,O=C(Nc1cccc(Cl)c1)c1cncn1-c1ccc(F)cc1
-22%,C#CCN1C(=O)S/C(=C/C=C/c2ccc(N(C)C)cc2)C1=O
13%,COC(=O)c1cc2c(C)cc3ccc(C)cn3c-2c1C(=O)OC
4%,CCC1CCc2sc(C(=O)N3CCN(c4ccccn4)CC3)cc2C1 (stereo unspecified)
-5%,CC(C)(C)c1ccc(-c2nnc(SCCC#N)n2C2CCCC2)cc1
5%,O=C(c1cccc(S(=O)(=O)N2CCOCC2)c1)N1CCOCC1
-10%,CCC(C)[C@H]1CN=C(N)N1CC1CCCCC1 (stereo partly specified)
7%,CCCOc1ccc(C(=O)NCC(c2cccs2)N(C)C)cc1 (stereo unspecified)
8%,Cc1cc(C)cc(NC(=O)N2CCN3CCCCC3C2)c1 (stereo unspecified)
-4%,COc1cccc2cc(C(=O)N3CCN(c4ccccc4F)CC3)c(=O)oc12
-5%,Cn1c(Cc2cccs2)nnc1SCC(=O)N1CCc2ccccc21
-4%,CCOc1ccc(C(C)NC(=O)CCC(=O)O)cc1 (stereo unspecified)
-5%,Cc1nn(Cc2cccc3ccccc23)c(C)c1NC(=O)c1cccnc1
-18%,COC(=O)c1cc(Br)cn1S(=O)(=O)c1ccccc1
-6%,CC(=O)c1ccc(-c2nc3c4ccccc4ccn3c2C(C)=O)o1
-3%,CC(C)CCOc1ccc(C(=O)NCC(c2cccs2)N2CCOCC2)cc1 (stereo unspecified)
6%,CCOc1ccc(C2CC(=O)NC(NC(=O)c3ccc(C)cc3)=N2)cc1 (stereo unspecified)
-7%,Cc1cc(NS(=O)(=O)c2ccc(C3CCCCC3)cc2)no1
5%,O=[N+]([O-])c1ccc(Cl)c(/C=N/N2CCN(Cc3ccc(Cl)cc3)CC2)c1
7%,CCOc1ccccc1NC(=O)C1CCN(S(C)(=O)=O)CC1
2%,COc1ccccc1OCCn1c(COc2cc(C)ccc2C)nc2ccccc21
7%,OCCNc1nc(NCCC2=CCCCC2)nc(N2CCOCC2)n1
-5%,O=C(O)c1ccccc1Nc1ccccc1C(=O)O
21%,O=C(O)c1ccc(-n2nnc3ccccc32)c([N+](=O)[O-])c1
-15%,CC1=C(C(=O)OCC2CCCO2)C(c2ccncc2)C2=C(CC(C)(C)CC2=O)N1 (stereo unspecified)
0%,COc1ccc(OC)c(S(=O)(=O)NC2CC2)c1
0%,O=[N+]([O-])c1cc(S(=O)(=O)Nc2ccccc2)ccc1N1CCN(c2ccccc2)CC1
-20%,Nc1cc(=O)[nH]c(SCC(=O)NCCC2=CCCCC2)n1
3%,O=C(CN1C(=O)CC(c2ccccc2)S(=O)(=O)c2ccccc21)N1CCCCC1 (stereo unspecified)
?,Cc1ccc(Oc2ccc(S(=O)(=O)NCC(C)(C)N3CCOCC3)cc2)cc1
-11%,COc1ccc(NC(=O)COc2ccccc2)cc1Cl
2%,COc1cccc(/C(O)=C/c2nc3ccc(C(=O)NCCc4ccc(Cl)cc4)cc3[nH]c2=O)c1
-5%,CCN(CC)S(=O)(=O)c1ccc(NC(=O)CSc2nc3nc(C)cc(C)c3c(=O)[nH]2)cc1

New compounds follow
VDR inh,smiles
0%,CC(NC(=O)C(NC(=O)C(Cc1c[nH]c2ccccc12)NC(=O)OC(C)(C)C)C(C)C)C(N)=O (stereo unspecified)
1%,COc1ccccc1C(=O)NCC(=O)N=Nc1c(O)n(C(C)C)c2ccccc12
-14%,COc1cccc(CNC(=O)c2cccc(Br)c2)c1
-8%,CCn1c(=S)[nH]c2cc(S(=O)(=O)N3CCOCC3)ccc21
114%[activator],O=C(Nc1nccs1)c1ccc(S(=O)(=O)N2CCOCC2)cc1
-23%,COCCSc1ccccc1C(=O)Nc1cc([N+](=O)[O-])ccc1OC
?,Cc1ccc(NC(=O)c2cnn(-c3ccc(C)c(C)c3)c2C2CCN(C(=O)OC(C)(C)C)CC2)c(C)c1
-5%,COc1cccc(NC(=O)CCN2C(=O)c3ccc([N+](=O)[O-])cc3C2=O)c1
-12%,CCOc1ccc(Oc2ccc(NC(=O)[C@@H](NC(N)=O)[C@@H](C)CC)cc2)cc1
6%,CC(C)Sc1ncc(Cl)c(C(=O)Nc2ccc(S(=O)(=O)N(C)c3ccccc3)cc2)n1
13%,O=C(COC(=O)c1cccc([N+](=O)[O-])c1)c1ccc(OCc2ccccc2)cc1
26%,Cc1ccc(C(=O)CCC(=O)OCC(=O)NNC(=O)c2ccccc2Cl)cc1
-3%,COc1ccc(N2C(=O)C3CCCN3C2c2cc(OC)c(OC)c(OC)c2)cc1 (stereo unspecified)
-13%,COc1ccc2c(c1)c(CCNNC(=O)C(C)(C)C)c(C)n2C(=O)c1ccc(Cl)cc1
6%,Cc1ccnc(NC(=O)c2ccc3[nH]c(=O)c(=O)[nH]c3c2)c1
-6%,CC[C@@H](C)[C@H](C(CC(=O)N1CCCC1[C@@H](OC)[C@H](C)C(=O)N[C@H](Cc1ccccc1)c1nccs1)OC)N(C)C(=O)[C@H](NC(=O)[C@@H](C(C)C)N(C)C)C(C)C (stereo partly specified)
0%,O=C(Nc1ccc(S(=O)(=O)NCC2CCCO2)cc1)c1cnccn1 (stereo unspecified)
-5%,Cn1c(=O)n(CCOc2ccc(Cl)cc2Cl)c2ccccc21
11%,O=C(Cc1cccs1)NCc1ccc(Cl)cc1
4%,Cc1noc(C)c1CSCC(=O)Nc1cc(S(C)(=O)=O)ccc1Cl
?,CNC(=O)Cn1nc(-c2ccc(C)cc2)c2ccccc2c1=O
4%,O=C1N/C(=N\N=C\c2ccco2)SC1Cc1ccccc1[N+](=O)[O-] (stereo unspecified)
-1%,Cc1ccc(C)c(CN2CCC(CNC(=O)Nc3ccc(C)c(C)c3)CC2)c1

5 entries picked at random from the list so far, as already listed:
VDR inh,smiles
-1%,Cc1ccc(C)c(CN2CCC(CNC(=O)Nc3ccc(C)c(C)c3)CC2)c1
1%,COc1ccccc1C(=O)NCC(=O)N=Nc1c(O)n(C(C)C)c2ccccc12
4%,Cc1noc(C)c1CSCC(=O)Nc1cc(S(C)(=O)=O)ccc1Cl
0%,CC(NC(=O)C(NC(=O)C(Cc1c[nH]c2ccccc12)NC(=O)OC(C)(C)C)C(C)C)C(N)=O (stereo unspecified)
114%[activator],O=C(Nc1nccs1)c1ccc(S(=O)(=O)N2CCOCC2)cc1
